Screening data: PubChem BioAssay, National Center for Advancing Translational Sciences (NCATS)
RECQ1 inh = qHTS Assay for Inhibitors of RecQ-Like Dna Helicase 1 (RECQ1). ATP-dependent DNA helicase Q1 (Homo sapiens), P46063. RECQ1 DNA unwinding, red fluorescence kinetic read. Potency, µM (doses to about 57.3 µM), for inactives: top-dose activity, negative = inhibition, most hits filed as inhibitors. actives 0.54% (n = 240,000);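 also: plate controls were vehicle for no effect and no enzyme for full effect; nearly all actives have a fitted effect of over 30% in size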
Target sequence (P46063 whole entry, looked up): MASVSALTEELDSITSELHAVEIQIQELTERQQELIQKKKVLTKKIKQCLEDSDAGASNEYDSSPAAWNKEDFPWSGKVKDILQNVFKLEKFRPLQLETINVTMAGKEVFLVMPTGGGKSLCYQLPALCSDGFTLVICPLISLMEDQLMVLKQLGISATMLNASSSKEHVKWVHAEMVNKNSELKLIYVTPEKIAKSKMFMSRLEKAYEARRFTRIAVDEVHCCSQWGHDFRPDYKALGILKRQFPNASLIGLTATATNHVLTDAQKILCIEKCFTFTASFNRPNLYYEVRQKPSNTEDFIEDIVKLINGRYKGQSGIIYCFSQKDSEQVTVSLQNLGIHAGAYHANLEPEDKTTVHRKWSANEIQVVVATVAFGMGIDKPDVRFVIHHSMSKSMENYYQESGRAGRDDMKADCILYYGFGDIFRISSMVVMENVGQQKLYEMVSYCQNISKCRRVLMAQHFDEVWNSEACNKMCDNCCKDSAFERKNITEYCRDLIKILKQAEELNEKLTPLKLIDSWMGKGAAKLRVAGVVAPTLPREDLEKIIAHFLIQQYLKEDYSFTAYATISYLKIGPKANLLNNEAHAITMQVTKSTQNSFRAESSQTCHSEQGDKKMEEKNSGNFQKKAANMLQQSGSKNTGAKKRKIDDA
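RECQ1T1 50 nM; forked duplex (20 bp + 30-nt ss tails) 200 nM, ATP 2 mM final; pH 8.0, 2 mM MgCl2, 2.5 ug/ml poly(dI-dC); 15 min compound preincubation; discontinuous kinetic read over 2 h at RT.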
HTT cytoprotect = qHTS Multiplex Assay to Identify Dual Action Probes in a Cell Model of Huntington: Cytoprotection (ATP); PC12 HTT-Q103 induced, cytoprotection, ATP luminescence, 40 h; Potency, µM (doses to about 56.4 µM), for inactives: cytoprotection (ATP increase), hits mostly activators; actives 0.14% (n = 230,000);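 also: % of control where 0% means no effect; nearly all actives have a fitted effect of over 45% in size; toxic huntingtin expression switched on by the ecdysone agonist tebufenozide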
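Compounds added alongside 100 nM tebufenozide, which induces toxic Q103 huntingtin exon 1-GFP in stable PC12 cells; surviving cells quantified by luminescent ATP measurement. Medium: phenol red-free DMEM, 5% equine and 5% calf serum.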
Tau fibril FP = qHTS for Inhibitors of Tau Fibril Formation, Fluorescence Polarization; Microtubule-associated protein tau (Homo sapiens), P10636; K18 P301L tau heparin fibrillization, Alexa594 FP, 6 h; Potency, µM (titrated, usually from 57.7 µM), for inactives: top-dose activity, negative = inhibition, usual class: inhibitors; actives 0.39% (n = 280,000); also: % is scaled to controls: 0 for no effect and ±100 for the full control effect; nearly all actives have a fitted effect of over 55% in size
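Human K18 P301L fragment (15 uM unlabeled plus 0.24 uM Alexa 594-labeled) in 100 mM sodium acetate pH 7 with compound, aggregation induced by 20 uM heparin for 6 hr at 37 C. ThT (30 uM) added for 1 hr, then Alexa 594 FP read.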
Tau fluor cs = Counterscreen qHTS for Inhibitors of Tau Fibril Formation, Fluorescence Polarization. tau K18 P301L Alexa594 fluorescence, heparin fibrillization. actives 0.93% (n = 280,000). Potency, µM (top dose mostly 57.7 µM), for inactives: at the top dose activity change, negative = decrease. AID 1463, 2008; also: % is scaled to controls: 0 for no effect and ±100 for the full control effect; nearly all actives have a fitted effect of over 55% in size
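Human tau K18 P301L (15 uM unlabeled, 0.24 uM Alexa 594-labeled) in 100 mM sodium acetate pH 7 with 20 uM heparin, 6 hr at 37 C. ThT 30 uM added, 1 hr ambient; Alexa 594 FP and total fluorescence read at 555/632 nm.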
L3MBTL1 block = qHTS Assay for the Inhibitors of L3MBTL1 | Lethal(3)malignant brain tumor-like protein 1 (Homo sapiens), Q9Y468 | AlphaScreen L3MBTL1–H3K9me1 peptide binding | Potency, µM (series often up to 57.1 µM), for inactives: top-dose activity, negative = inhibition, hits mostly inhibitors | actives 0.66% (n = 230,000) | AID 485360, 2010; also: % is scaled to controls: 0 for no effect and ±100 for the full control effect; nearly all actives have a fitted effect of over 60% in size
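L3MBTL1 (50 nM) pre-complexed 30 min with biotinylated H3(1-15)K9me1 peptide (75 nM), then compounds added for 30 min at room temperature; AlphaScreen streptavidin donor/nickel chelate acceptor beads (10 ug/mL final) read after 30 min dark incubation.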
Active calls of the source: *; ? = inconclusive; nt = no result given; & = joins results of further samples; [ ] = another dose, or the depositor's remark. Calls follow the shape of the dose curve; as a rule, active = well fitted curve in the direction sought with a large enough effect; inconclusive = small, poorly fitted or top-dose-only effect, or another doubt; inactive = no such curve, though single readings can be large; an effect the other way counts as inactive or inconclusive. Potency is read from the fitted curve at half-maximal effect. The list is partial; rates above refer to the full screens.

entry | molecule | Tau fluor cs | HTT cytoprotect | RECQ1 inh | L3MBTL1 block | Tau fibril FP
1 | CCCCCC(=O)CC[C@@H]1[C@@H](C/C=C\CCCC(=O)O)[C@@H](O)C[C@H]1O | -12.3% | -20.0% | -14.0% | nt | 3.9%
2 | C=CCNC(N)=S | nt | 5.4% | -10.2% | nt | nt
3 | O=CC(=O)c1ccccc1 | nt | -29.6% | -2.4% | -2.0% | nt
4 | Nc1ncnc2c1ncn2[C@@H]1O[C@@H](CO)[C@H](O)[C@H]1O | nt | 11.2%[40.3 µM] | -4.5%[25.9 µM] | nt | nt
5 | CC(C)(C)NC(=O)[C@@H]1CC[C@@H]2[C@@H]3CC[C@@H]4NC(=O)C=C[C@@]4(C)[C@H]3CC[C@]21C | nt | ? | -0.9%[25.9 µM] | nt | nt
6 | CC(C)Cc1ccc([C@@H](C)C(=O)NS(C)(=O)=O)cc1 | nt | 7.2% | -9.4% | nt | nt
7 | CCCCC[C@H](O)C=C[C@H]1[C@H](O)CC(=O)[C@H]1CCCCCCC(=O)O | -0.9% | 12.4% | -11.3% | nt | 2.2%
8 | COc1ccc2cc1Oc1ccc(cc1)C[C@H]1c3c(cc4c(c3Oc3cc5c(cc3OC)CCN(C)[C@@H]5C2)OCO4)CCN1C | -10.2%&4.1% | -285.4%[inhibitor] | 21.4%&29.1% | nt | -1.5%&1.2%
9 | CCC(=O)OCC(=O)[C@@]1(OC(=O)CC)[C@@H](C)C[C@@H]2[C@H]3CCC4=CC(=O)C=C[C@]4(C)[C@@]3(F)[C@@H](O)C[C@@]21C | -22.2% | nt | -12.2% | nt | -2.8%
10 | CN[C@@H]1[C@H](O[C@H]2[C@@H](O[C@@H]3[C@@H](O)[C@@H](O)[C@@H](N=C(N)N)[C@@H](O)[C@@H]3N=C(N)N)O[C@@H](C)[C@]2(O)CO)O[C@H](CO)[C@@H](O)[C@@H]1O | nt | 2.1%[40.3 µM] | -10.4%[25.9 µM] | nt | nt
11 | Cc1ccc(S(=O)(=O)NCCCCC(NC(=O)OC(C)(C)C)C(=O)O)cc1 (stereo unspecified) (tested in a mixture with another compound) | -2.4% | 23.0%[10 µM] | -0.5% | 4.6% | -4.5%
12 | OCC1OC(O)C(O)C(O)C1O (stereo unspecified) | 0.0% | -51.9%[inhibitor] | -1.4% | nt | 2.6%
13 | CC(N)C(O)c1cccc(O)c1 (stereo unspecified) | -0.8% | -6.8% | 10.5% | nt | 6.2%
14 | O=C(O)CN(CC(=O)O)CC(=O)O | nt | 6.1% | -1.9% | nt | nt
15 | Cc1cc([N+](=O)[O-])ccc1NCc1ccccc1[N+](=O)[O-] | -24.9% | -10.8%[10 µM] | -1.5% | -1.7% | ?
16 | O=C(O)C(=O)Cc1c[nH]c2ccccc12 | ? | nt | -3.6% | -14.2% | ?
17 | CNCC[C@H](Oc1cccc2ccccc12)c1cccs1 | -8.6% | -97.3%[inhibitor] | -7.5% | nt | 1.0%
18 | CCCCCCCCCCCCCCCCCCOCC(O)CO (stereo unspecified) | -2.0% | 15.9% | -16.4% | nt | 1.1%
19 | Clc1cc(Cl)cc(Cl)c1 | nt | 22.3% | -10.1% | nt | nt
20 | N=C(N)N | 2.4% | nt | -6.3% | nt | 1.4%

A draw from above in order of length of the SMILES, high to low:
entry | molecule | Tau fluor cs | HTT cytoprotect | RECQ1 inh | L3MBTL1 block | Tau fibril FP
17 | CNCC[C@H](Oc1cccc2ccccc12)c1cccs1 | -8.6% | -97.3%[inhibitor] | -7.5% | nt | 1.0%
14 | O=C(O)CN(CC(=O)O)CC(=O)O | nt | 6.1% | -1.9% | nt | nt
12 | OCC1OC(O)C(O)C(O)C1O (stereo unspecified) | 0.0% | -51.9%[inhibitor] | -1.4% | nt | 2.6%

(listing goes on)
entry | molecule | Tau fluor cs | HTT cytoprotect | RECQ1 inh | L3MBTL1 block | Tau fibril FP
21 | CCCCc1ccc2nc(NC(=O)OC)[nH]c2c1 | nt | -295.3%[inhibitor][17.1 µM] | -2.8%[25.9 µM] | nt | nt
22 | Nc1ncnc2c1ncn2C1OC(CO)C(O)C1O (stereo unspecified) | -2.8%&-2.7%&-9.8% | -11.2% | -17.7% | 10.4% | 4.7%&1.5%&-4.5%
23 | CC(=O)NCCc1c[nH]c2ccc(OCC(O)CNC(C)(C)C)cc12 (stereo unspecified) | -17.0% | 19.9%[10 µM] | -2.7% | 8.7% | -9.7%
24 | Nc1ncnc2c1ncn2[C@H]1C[C@H](O)[C@@H](CO)O1 | -5.0% | nt | -13.4% | 3.3% | -8.3%
25 | CCCOCC(C)OCC(C)O (stereo unspecified) | nt | -0.6% | -10.9% | nt | nt
26 | O=C(O)/C=C\c1ccc(Cn2ccnc2)cc1 | nt | -7.9%[40.3 µM] | -3.8%[25.9 µM] | nt | nt
27 | CCN(Cc1ccccc1)c1ccccc1 | nt | 6.1% | -20.6% | nt | nt

A second format for part of the listing above:
7: CCCCC[C@H](O)C=C[C@H]1[C@H](O)CC(=O)[C@H]1CCCCCCC(=O)O
  Tau fluor cs: -0.9%
  HTT cytoprotect: 12.4%
  RECQ1 inh: -11.3%
  L3MBTL1 block: nt
  Tau fibril FP: 2.2%

8: COc1ccc2cc1Oc1ccc(cc1)C[C@H]1c3c(cc4c(c3Oc3cc5c(cc3OC)CCN(C)[C@@H]5C2)OCO4)CCN1C
  Tau fluor cs: -10.2%&4.1%
  HTT cytoprotect: -285.4%[inhibitor]
  RECQ1 inh: 21.4%&29.1%
  L3MBTL1 block: nt
  Tau fibril FP: -1.5%&1.2%

9: CCC(=O)OCC(=O)[C@@]1(OC(=O)CC)[C@@H](C)C[C@@H]2[C@H]3CCC4=CC(=O)C=C[C@]4(C)[C@@]3(F)[C@@H](O)C[C@@]21C
  Tau fluor cs: -22.2%
  HTT cytoprotect: nt
  RECQ1 inh: -12.2%
  L3MBTL1 block: nt
  Tau fibril FP: -2.8%

10: CN[C@@H]1[C@H](O[C@H]2[C@@H](O[C@@H]3[C@@H](O)[C@@H](O)[C@@H](N=C(N)N)[C@@H](O)[C@@H]3N=C(N)N)O[C@@H](C)[C@]2(O)CO)O[C@H](CO)[C@@H](O)[C@@H]1O
  Tau fluor cs: nt
  HTT cytoprotect: 2.1%[40.3 µM]
  RECQ1 inh: -10.4%[25.9 µM]
  L3MBTL1 block: nt
  Tau fibril FP: nt
